B2AR ag: beta2AR agonists driving receptor internalization, primary screen, cell-based, FAP fluorogen, flow cytometry; 340,000 compounds, 0.43% hits; Am2.2-beta2AR cells; reference of the scale not given here; Beta-2 adrenergic receptor (Homo sapiens), P07550; response, % (no concentration beside the values);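 active = response above a set limit, near 3 SD of response in nonfluorescent compounds, cut at about 42% in these data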;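 note: stock transfer was 100 nL into about 11 µL; a reference agonist was the positive control; negative values mostly stem from fluorescent compounds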
Target sequence (P07550 whole entry, looked up): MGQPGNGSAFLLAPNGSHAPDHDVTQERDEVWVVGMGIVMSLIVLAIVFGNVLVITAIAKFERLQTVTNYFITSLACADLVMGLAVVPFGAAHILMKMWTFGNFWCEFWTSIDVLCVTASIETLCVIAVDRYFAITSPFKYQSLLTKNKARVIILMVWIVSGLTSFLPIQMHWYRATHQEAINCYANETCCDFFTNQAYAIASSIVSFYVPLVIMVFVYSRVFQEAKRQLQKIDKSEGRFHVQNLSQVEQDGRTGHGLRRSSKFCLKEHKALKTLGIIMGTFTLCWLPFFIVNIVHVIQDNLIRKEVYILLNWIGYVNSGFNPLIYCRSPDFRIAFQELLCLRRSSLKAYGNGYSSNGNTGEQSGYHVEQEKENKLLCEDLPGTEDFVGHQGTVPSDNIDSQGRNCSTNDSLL
A1 inh: caspase 3/7 activation in MEF A1-2A-BIM cells, primary screen, A1 inhibitor project, cell-based, luminescence, HTS; AID 2462, 2010; 330,000 compounds, 0.066% hits; Caspase-Glo 3/7 luminescence, 3 h; percent of clofoctol response, vehicle zero; caspase activation, % (test concentration not listed);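 active = over half of replicate activation scores above 10%, or exactly half above 10 with the replicate mean above 10; inconclusive = replicate mean below 10 yet half the replicates above 10; inactive = over half of replicates below 10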;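 note: wells of about 30 µL received 50 nL stock; many hits fall short of the cut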
Ecoli rRNA inh: reduced GFP signal of wild-type E. coli, primary screen, bacterial rRNA inhibitor project, GFP/RFP fluorescence, OD600, single point | E. coli WT GFP vs humanized-ribosome RFP mutants, 24 h; active compounds read low; DMSO median 0, no signal -100 | GFP signal change (wild-type ribosome), % (test concentration not listed) | 350,000 compounds, 1.6% hits | AID 720706, 2013;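 active = significant combined selectivity score with lowered wild-type GFP, culture density cut under 30%, mutant RFP and density less affected; inactive = any of these conditions unmet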; note: one replicate is shown; some compounds called inactive have numbers as strong as hits
ALR inh: inhibitors of human ALR sulfhydryl oxidase, primary screen, biochemical, H2O2 detection, HRP-luminol luminescence, single point; FAD-linked sulfhydryl oxidase ALR (Homo sapiens), P55789; purified ALR, DTT oxidation; inhibition, % (no concentration beside the values); 290,000 compounds, 3.8% hits;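 active = mean and each replicate at 75% or more; inconclusive = only one of the two met; inactive = neither met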;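 note: stock transfer was 7.5 nL into about 7.5 µL; 0% = neutral wells and 100% = wells with inactivated enzyme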
Target sequence (P55789 whole entry, looked up): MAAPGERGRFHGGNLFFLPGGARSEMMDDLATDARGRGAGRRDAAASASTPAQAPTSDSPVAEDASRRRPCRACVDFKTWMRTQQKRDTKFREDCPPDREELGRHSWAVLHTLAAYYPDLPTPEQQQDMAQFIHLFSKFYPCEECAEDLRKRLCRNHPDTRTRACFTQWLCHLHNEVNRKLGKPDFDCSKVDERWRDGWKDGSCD
LANA-H2A inh: blockers of LANA interaction with H2A/H2B – biochemical, FP readout, HTS, primary screen. Protein LANA1 (Human herpesvirus 8 type P (isolate GK18)), Q9QR71. cell-free LANA-H2A/H2B peptide, fluorescence polarization. inhibition, % (test concentration not listed). 320,000 compounds, 0.6% hits. AID 2629, 2010; in the data active = inhibition mostly above about 10%, no sharp cut-off; inactive = mostly below about 6.7%;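 note: stock transfer was 7.5 nL into about 10 µL; 0% = median of vehicle wells and 100% = median of positive control wells; one replicate is shown; the record names a cut of 25% in any replicate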
T cruzi inh: inhibitors of intracellular T. cruzi growth, primary screen, luminescence, NIH3T3 host cells. inhibition, % (concentration not given with the values). T. cruzi beta-gal in NIH3T3, 90 h. 300,000 compounds, 1.4% hits;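 active = mean inhibition across valid replicates above about 55%, limit read from the data; inconclusive = mean below that limit but half or more replicates reach it; inactive = mean below it, under half of replicates reach it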;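 note: signal also drops with host cell toxicity which is not excluded here; 0% = plate median of DMSO wells and 100% = zero luminescence signal; higher percent means less beta-gal luminescence so fewer parasites; stock transfer was 50 nL into about 50 µL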
Beta apoptosis: inhibitors of cytokine-induced beta cell apoptosis, primary screen, luminescence. INS-1E cytokine-induced death, ATP luminescence, 48 h; percent of positive-control rescue, neutral wells zero. protection from apoptosis, % (concentration not given with the values). 300,000 compounds, 0.8% hits. AID 435005, 2010;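 active = all replicates at 75% or more, or half of them and the mean; inconclusive = half reach 75% but not the mean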;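 note: 0% = cytokine-treated negative control wells and 100% = positive control rescue; higher means more ATP so stronger rescue from cytokine killing; wells of about 40 µL received 100 nL stock; the first replicate is given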
Calb FLC: C. albicans growth inhibition with fluconazole, primary screen, CaCi-2 strain, Alamar Blue fluorescence; 300,000 compounds, 0.57% hits; growth inhibition, % (test concentration not listed); AID 1979, 2009; C. albicans CaCi-2 (fluconazole-resistant clinical isolate) + fluconazole, 48 h;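 active = most replicates above 75%; inconclusive = exactly half above 75%; inactive = most below 75%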;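 note: all wells also contain fluconazole at 8 µg/ml as a sub-toxic cotreatment; 0% = median of DMSO wells and 100% = median of geldanamycin control wells; wells of about 8 µL received 7.5 nL stock; the first replicate is given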
Ecoli rRNA inh OD600: also measured in Ecoli rRNA inh; calls as there; OD600 change, %; measured here: OD600 growth;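 optical density of the mix in the first replicate; 0 = DMSO median and -100 = no signal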
Ecoli rRNA inh RFP: recorded beside Ecoli rRNA inh, whose call it bears; RFP signal change, %; measured here: RFP humanized mutant strains;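 first replicate; 0 = DMSO median and -100 = no signal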
* = called active by the depositor; ? = inconclusive; . = no result given. A portion of the library; the hit share may differ from the screen's.

SMILES	B2AR ag	A1 inh	Ecoli rRNA inh	Ecoli rRNA inh OD600	Ecoli rRNA inh RFP	ALR inh	LANA-H2A inh	T cruzi inh	Beta apoptosis	Calb FLC
Cc1ccc(NC(=O)c2cc3cc(OC(F)(F)F)ccc3[nH]2)cc1	.	1.7	2	-6	-0.2	-13	-1.5	42	2	2
COc1cc(C(=O)N2CCCCC2)ccc1OCC(=O)Nc1ccc(F)cc1	1	1.3	0	2	-2.4	1	3.0	.	0	.
N#CC1=C2Sc3ccccc3N2CCCC1=O	-11	-1.3	2	0	0.5	25	-0.1	-4	2	-4
O=C(Cc1nc2ccccc2[nH]c1=O)c1ccc(Cl)cc1	-328	-4.7	5	1	1.0	.	-1.5	1	0	11
NC(CSCc1ccccc1Cl)C(=O)O (centres undefined)	11	-0.2	5	2	3.4	58	-7.0	-1	2	?
COc1ccccc1NC(=O)c1nnn(Cc2ccccc2)c1NC(C)=O	-7	1.5	.	.	.	-14	-0.1	-2	3	-6
Cc1ccc(SCCC(=O)N2CCOCC2)cc1	5	1.1	8	8	-0.3	-6	-1.2	1	-7	-3
CC(C(=O)NCC(=O)Nc1ccc(F)c(F)c1F)N1CCN(c2ccc(O)cc2)CC1 (centres undefined)	8	-1.5	.	.	.	99*	1.5	.	-4	.
Cc1noc(/C=C/c2ccco2)c1S(=O)(=O)N1CCC(C(=O)N2CCc3ccccc32)CC1	8	-0.1	-4	8	3.0	3	-3.8	51	0	0
Cc1ccccc1NC(=O)CSc1nc2cc3c(cc2cc1C)CCC3	-10	0.4	16	22	-1.9	-3	7.4	-30	.	4
CCC(=O)Nc1nc(C)c(-c2csc(Nc3cccc(C(=O)O)c3)n2)s1	-9	-0.6	.	.	.	88*	-2.5	-8	0	3
COc1cc(/C=C(\C#N)c2nc3ccccc3[nH]2)c([N+](=O)[O-])cc1OCc1ccccc1	35	0.7	.	.	.	1	-0.3	47	16	8
COc1cccc(NC(=O)c2oc3ccccc3c2NC(=O)C(C)(C)C)c1	1	0.2	.	.	.	5	-3.0	43	8	3
CC(=O)c1ccc(NC(=O)c2cccc(S(=O)(=O)N3CCN(C)CC3)c2)cc1	5	-0.9	2	9	1.2	-5	4.1	-5	-1	2
Cn1c(SCC(=O)Nc2ccc(Cl)cc2F)nnc1-c1ccco1	-24	0.0	5	2	1.1	-2	6.4	-3	1	-2
COc1ccccc1NC(=O)c1ccc(NC(=O)COC(=O)CCC2CCCC2)cc1	-13	0.7	.	.	.	4	-2.1	-17	-4	2
CCn1c(CNS(=O)(=O)c2ccc(Br)cc2)nnc1SC	13	-1.4	6	7	-2.0	0	-2.6	11	0	-13
O=C(NC1CCCCC1)C(c1ccc2ncccc2c1)N(Cc1ccc(F)cc1)C(=O)c1cccs1 (centres undefined)	-11	1.0	.	.	.	-3	-1.2	-2	2	19
CC(=O)c1c(-c2ccccc2)c2cc(Cl)ccc2n(C)c1=O	-4	0.1	-35	-45	-9.0	-5	0.9	7	5	-12
CCCCN(CC)CCCNC(=O)CC1Oc2ccccc2NC1=O (centres undefined)	-3	0.6	3	15	1.4	-2	-4.9	8	-9	-24
COc1ccccc1NC(=O)c1ccc(NC(=O)COC(=O)CC(NC(=O)c2ccccc2Cl)c2ccccc2)cc1 (centres undefined)	-28	-0.1	-8	-2	-2.6	-5	-7.9	-7	5	3
NC(=O)c1noc(C(=O)N(CC(=O)NC2CCCC2)Cc2ccc3c(c2)OCO3)c1N	7	1.1	.	.	.	2	4.4	.	0	.
CCN1C(=O)N[C@@H](c2cccc(C(F)(F)F)c2)[C@H](C(C)=O)[C@H]1C	-6	-0.5	5	7	-0.8	11	0.9	0	-4	-7
O=C(Cc1ccccc1)Oc1coc(CSc2ncccn2)cc1=O	0	0.4	11	17	-4.7	6	6.8	-7	3	-9
Cc1ccc2nc(SCC(=O)c3c(N)n(C)c(=O)n(C)c3=O)[nH]c2c1	1	-0.7	24	20	3.5	6	1.2	-9	-5	2

An excerpt from above, limited to ALR inh and LANA-H2A inh.
SMILES	ALR inh	LANA-H2A inh
CCN1C(=O)N[C@@H](c2cccc(C(F)(F)F)c2)[C@H](C(C)=O)[C@H]1C	11	0.9
O=C(Cc1ccccc1)Oc1coc(CSc2ncccn2)cc1=O	6	6.8

(more compounds)
SMILES	B2AR ag	A1 inh	Ecoli rRNA inh	Ecoli rRNA inh OD600	Ecoli rRNA inh RFP	ALR inh	LANA-H2A inh	T cruzi inh	Beta apoptosis	Calb FLC
O=C(Nc1ccccc1)c1cccnc1N1CCCC1	-6	-0.3	.	.	.	0	-1.4	2	-5	?
O=C(NCc1ccccc1)C1CCC1	10	1.1	.	.	.	-6	1.4	2	.	3
COc1ccc(NS(=O)(=O)c2cccc(C(=O)NCC(c3ccccc3OC)N3CCCC3)c2)cc1 (centres undefined)	-7	?	4	-2	0.5	1	1.2	-13	-5	-3
COc1ccc2c(c1OC)C(=O)OC2Nc1nc(-c2ccccc2)cs1 (centres undefined)	43*	-1.7	.	.	.	6	0.5	41	?	-3
CCOC(=O)N1CCC(NC(=O)C(CC(C)C)NC(=O)C2CCC(C)CC2)CC1 (centres undefined)	1	0.1	.	.	.	-24	3.5	0	-6	-2
NNc1nc(-c2ccccc2)c2cc(Cl)ccc2n1	-4	0.0	-13	-7	2.4	0	-1.6	7	4	32
O=C1CN(Cc2nc3cc(Cl)ccc3c(=O)[nH]2)CCN1	0	0.6	5	-1	4.0	0	1.5	-19	-3	10
COc1ccccc1N1CCN(C(=O)C2CCCCN2S(=O)(=O)c2ccc(C)cc2)CC1 (centres undefined)	6	0.3	-11	-10	3.8	15	1.2	2	0	-4
NC(=O)C(=O)N/N=C/c1c(F)c(F)c(F)c(F)c1F	2	0.4	11	9	-1.0	0	4.5	16	8	19
Cc1cc(C)n(CC(=O)NNC(=O)c2cccc(C(F)(F)F)c2)n1	2	1.2	8	14	0.9	-3	3.2	-9	-3	0
Cc1ccc(C)c(S(=O)(=O)NCc2cccnc2)c1	1	-0.9	7	9	-0.6	4	0.7	-20	1	17
O=C(NCCc1ccccc1)C1(c2ccccc2)CCCC1	2	0.0	-30	-30	-3.8	-3	5.0	-19	-5	-9
COc1cccc(CNC(=O)CCS(=O)(=O)c2cccc3nonc23)c1	12	1.3	.	.	.	-3	0.2	7	1	-8
CCOc1ccc(-c2nc(CSCC(=O)NC3CCCc4ccccc43)c(C)o2)cc1 (centres undefined)	-11	-0.5	.	.	.	96*	-3.1	38	3	-11
COc1ccccc1NC(=O)CCN1C(=O)/C(=C\c2cc(OC)c(OC)c(OC)c2)SC1=S	7	-2.3	9	5	-0.6	0	-1.1	-13	-1	-2
COc1ccc(S(=O)(=O)NC2CC2)cc1Cl	4	0.7	10	11	0.7	-1	4.2	-13	-2	-3
C=CCOCCN(CC)CC	-5	1.3	3	10	-1.3	-11	1.9	-5	3	2
COc1ccc(CNC(=O)CCNS(=O)(=O)c2ccc(NC(C)=O)cc2)cc1OC	-4	0.0	14	12	-0.6	.	-1.8	.	-3	.
CCOC(=O)c1c(NC(=O)C2C3C=CC(CC3)C2C(=O)O)sc(C)c1CC (centres undefined)	2	3.0	.	.	.	-1	0.6	3	-1	5
O=C(c1ccccc1)c1ccc2nc(-c3ccc(NC(=O)c4ccccc4F)cc3)[nH]c2c1	21	-0.6	.	.	.	-4	-6.0	15	3	2
CC(=O)N1CCN(CCN=CC2=C(O)CC(C)(C)CC2=O)CC1	12	-0.1	.	.	.	-5	5.5	6	-3	-15
CN(C)C(=O)CN(c1ccc(F)c(Cl)c1)S(C)(=O)=O	0	1.2	.	.	.	-46	-1.6	-16	-5	-10
O=C(c1ccc(S(=O)(=O)N2CCCCC2)cc1)N1CCN(c2ccccc2)CC1	6	-1.2	.	.	.	3	-3.9	12	3	9
COc1ccc(/C=N/Nc2nc3ccccc3c(=O)[nH]2)cc1	1	-2.9	.	.	.	11	-0.4	0	12	11
Fc1ccc(-c2n[nH]c(=S)n2CC2CCCO2)cc1 (centres undefined)	-3	-0.6	.	.	.	-1	7.5	2	0	10

(cont.)
SMILES	B2AR ag	A1 inh	Ecoli rRNA inh	Ecoli rRNA inh OD600	Ecoli rRNA inh RFP	ALR inh	LANA-H2A inh	T cruzi inh	Beta apoptosis	Calb FLC
CC1CCc2sc(C(=O)NNC(=S)NCC3CCCO3)cc2C1 (centres undefined)	-12	0.0	-5	1	-2.5	9	-1.6	-2	3	0
COC(=O)c1ccc(/C=C/c2c(-c3ccc(OC)cc3)sc3ccccc23)cc1	-8	0.1	4	1	0.7	3	3.7	.	6	.
CCOc1ccc(-c2csc(NC(=O)c3ccco3)n2)cc1	8	-2.4	-22	-28	16	4	-1.0	-14	-5	22
Cc1cccc(NS(=O)(=O)c2nnc(NC(=O)c3ccc(C)c(C)c3)s2)c1	5	0.1	-28	-25	-3.6	33	0.0	.	1	.
COc1ccc(N(C(=O)c2ccncc2)S(=O)(=O)c2ccc3c4c(cccc24)C(=O)N3C)cc1	-2	0.9	12	7	-0.5	-2	2.0	-11	-5	3
CCOC(=O)CC1NCCc2c1[nH]c1ccc(OC)cc21 (centres undefined)	-6	-1.8	16	-6	2.9	7	-2.7	-9	-4	-41
O=[N+]([O-])c1cc(Cl)cc2c1nc(NCCO)c1ccccc12	11	-0.5	-11	-29	0.4	-13	6.2	-10	-2	.
CCOC(=O)/C(C#N)=C/c1c(N2CCN(c3cccc(Cl)c3)CC2)nc2c(C)cccn2c1=O	0	.	9	6	0.3	.	.	47	.	2
COc1ccc(-c2n[nH]c(=S)n2-c2cc(OC)ccc2OC)cc1	3	0.0	-4	-7	-11	-1	13	1	-10	9
CCc1sc(C(=O)Nc2ccc(N3CCOCC3)cc2)cc1C	10	-4.2	-22	-20	-11	8	6.5	.	-1	.
CC(=O)N1CCOc2cc(S(=O)(=O)NCc3ccc(F)cc3)c(C)cc21	1	-0.1	10	5	1.5	-3	-12	-10	-6	8
CC(C)C(=O)Nc1ccc(C(=O)NNC(=S)NC(=O)c2ccccc2[N+](=O)[O-])cc1	-6	2.1	-8	-8	2.9	.	3.3	8	2	-14
O=C(N/N=C/c1ccccn1)c1cc(-c2ccc(Cl)s2)[nH]n1	-16	0.4	1	4	8.8	0	2.4	-3	-1	-2
O=C(COc1cc(Cl)c(Cl)cc1Cl)Nc1cccc(O)c1	0	-7.6	-6	0	-1.0	-7	-4.0	11	-7	1
O=[N+]([O-])c1ccc(C[n+]2ccc(Cc3ccccc3)cc2)cc1	5	0.1	11	8	-1.5	44	4.2	3	44	20
C/C(=C\c1ccccc1)CN1CCC(C(=O)N2CCCC(C)C2)CC1 (centres undefined)	-8	-0.2	12	1	1.9	-9	-5.5	3	1	-36

Assay outcomes from PubChem BioAssay.
